Screening data deposited in PubChem by several laboratories.
CSC inhib – blocks cancer stem cells; cancer stem cell-like cells viability, luminescence; inhibition, % at 7.5 µM; 1.1% of 300,000 active; AID 2717;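 active = mean at 75% or more and at least half the replicates too; inconclusive = mean and replicates disagree; tested in HMLE shEcad cells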;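 note: 0% = median of negative and 100% = median of positive control wells; the first replicate is given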
MT1-MMP act inh – MT1-MMP (human) activation inhibition; 0.061% of 360,000 active; HT1080 RFP-PRO-GFP cells, GFP/RFP ratio fluorescence, overnight; percent of plate control window, DMSO zero; P50281; GFP/RFP ratio change, % at 20 µM;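 active = GFP/RFP ratio change of at least 30% with cell ATP level not reduced by more than half and red fluorescence within 50% of control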; note: strong numbers were not always called active
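Assay system – RFP-PRO-GFP reporter HT1080 cells · Compound dosing – single dose of 20 µM compound, 1% DMSO final · Incubation – overnight compound exposure at 37 °C · Measure – GFP/RFP fluorescence ratio · Benchmarks – DMSO wells and RFP-L50D-GFP cells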
eIF4H FP inh – inhibitors of RNA binding by human eIF4H; Q15056; eIF4H fluorescence polarization binding assay; inhibition, % at 35 µM; 0.94% of 290,000 active; AID 2012;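 active = 50% or more with normal probe brightness, or confirmed in later tests; inconclusive = above 50% with abnormal brightness, or retests that disagree; inactive = below 50% or failed in later tests; about a fifth of its hits are not listed in these tables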;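 note: calls also rest on retests at 20 µM and on dose response follow-up; 0% = protein and probe with vehicle and 100% = probe without protein; strong numbers were not always called active; many hits fall short of the cut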
PABP polyA inh – PABP-poly(A) binding inhibition | P11940 | PABP-poly(A) RNA binding, fluorescence polarization | inhibition, % at 35 µM | 1% of 290,000 active | AID 2014;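 active = 50% or more with normal probe brightness, or confirmed in later tests; inconclusive = above 50% with abnormal brightness, or retests that disagree; inactive = below 50% or failed in later tests; about a fifth of its hits are not listed in these tables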;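 note: calls also rest on retests at 20 µM and on dose response follow-up; controls were probe without protein and protein plus probe with vehicle; some compounds called inactive have numbers as strong as hits; many hits fall short of the cut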
Target sequence (P11940 whole entry, looked up): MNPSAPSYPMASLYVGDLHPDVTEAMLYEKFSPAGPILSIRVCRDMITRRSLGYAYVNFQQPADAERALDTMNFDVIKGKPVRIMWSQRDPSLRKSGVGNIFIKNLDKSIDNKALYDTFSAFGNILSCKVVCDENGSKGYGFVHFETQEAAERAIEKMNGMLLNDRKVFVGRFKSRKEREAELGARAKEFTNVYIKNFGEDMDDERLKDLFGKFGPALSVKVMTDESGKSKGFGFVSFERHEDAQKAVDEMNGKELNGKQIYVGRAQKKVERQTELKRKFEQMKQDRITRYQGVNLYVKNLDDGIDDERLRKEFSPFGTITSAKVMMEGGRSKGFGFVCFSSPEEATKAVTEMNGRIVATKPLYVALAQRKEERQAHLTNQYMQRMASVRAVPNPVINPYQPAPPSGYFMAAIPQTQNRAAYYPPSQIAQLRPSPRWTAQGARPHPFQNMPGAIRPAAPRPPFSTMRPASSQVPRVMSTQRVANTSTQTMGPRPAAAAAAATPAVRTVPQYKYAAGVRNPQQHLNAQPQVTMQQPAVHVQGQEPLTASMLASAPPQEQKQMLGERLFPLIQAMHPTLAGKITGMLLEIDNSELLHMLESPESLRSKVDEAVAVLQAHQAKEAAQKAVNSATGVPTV
Rce1 inh – yeast Ras-converting enzyme inhibition. calls only. yeast membranes, quenched prenylated peptide cleavage fluorescence. 0.27% of 290,000 active. Q03530;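 active = fall in fluorescence gain of 50% or more versus controls, with final raw signal at or below 3038400; inconclusive = same 50% fall but final raw signal above 3038400; inactive = fall in fluorescence gain under 50%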;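 note: plate controls were neutral control wells for no effect and wells lacking membranes for full effect; tested at 10 µM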
HIV Env fusion – HIV envelope-mediated fusion inhibition. AID 651610. HeLa-JRFL Env/CEM21 cell fusion, luciferase. 1.1% of 360,000 active. inhibition, % at 12.3 µM;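 active = mean replicate inhibition score of at least 50 and every replicate individually at or above 50; inconclusive = only one of the two criteria met; inactive = mean below 50 and not all replicates reaching 50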;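 note: 0% = plate neutral controls and 100% = maraviroc near 300 nM; one replicate is shown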
Yeast UUG start – modulators of start codon recognition fidelity in yeast; S. cerevisiae UUG-firefly luciferase reporter, luminescence/redox ratio; activity score, % at 18.7 µM; 0.13% of 350,000 active;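 active = replicate mean at a twofold rise or more, about +100% in these data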;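 note: firefly luciferase made from a UUG start codon reports start codon fidelity; reporter light over untreated wells divided by growth signal over untreated wells; some hits fall short of that in this replicate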
eIF4H FP inh retest – also measured in eIF4H FP inh; calls as there; inhibition, %; compound at 20 µM; confirmation average;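 mean of two retest wells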
PABP polyA inh retest – second read-out of PABP polyA inh, no call of its own (marks repeat the call); inhibition, %; compound at 20 µM; confirmation repeats;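 mean of two retest wells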
MT1-MMP act inh RFP – second read-out of MT1-MMP act inh, no call of its own (marks repeat the call); RFP signal change, %; measured here: RFP expression control read;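 0 = vehicle wells; hits needed this value within 50% of zero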
* hit, by the source's call; i = inactive; u = inconclusive; x = not tested or not shown; [ ] = remark or other dose.

SMILES	CSC inhib	MT1-MMP act inh	MT1-MMP act inh RFP	eIF4H FP inh	PABP polyA inh	Rce1 inh	HIV Env fusion	Yeast UUG start	others
Cc1c(C(=O)OCC(=O)Nc2c(C)n(C)n(-c3ccccc3)c2=O)cccc1[N+](=O)[O-]	-9	1	3	-7	-7	i	-5	x
Cc1cccc(Cn2c(O)c(N=NC(=S)Nc3ccccc3F)c3ccccc32)c1	-3	8	-4	-1	46	i	20	x
Cc1ccc(C(=O)NN2C(=O)C3C4C=CC(C4)[C@@H]3C2=O)cc1 (some centres undefined)	5	x	x	-4	-12	i	1	x
Cc1cc(NS(=O)(=O)c2ccc(NC(=O)c3ccoc3C)cc2)nc(C)n1	x	-5	0	3	10	x	x	-16
COc1ccc(-c2nc(-c3ccccc3)nc(Cl)c2C#N)cc1	1	0	-4	-3	15	i	-11	-1
Cc1ccc(S(=O)(=O)N2CCN(C(=O)COC(=O)c3cccc(Cl)c3)CC2)c(C)c1	2	1	3	x	x	x	0	-20
Cc1ccc(-c2cc(C(F)F)n3ncc(C(=O)N4CCc5ccccc54)c3n2)cc1	67	-11	-17	2	1	i	-71	x
CC(C)(COC(=O)Nc1ccccc1)COC(=O)Nc1ccccc1	6	1	2	-7	1	i	9	-7
COc1ccc(C(=O)OCC(=O)NCc2ccc3c(c2)OCO3)cc1S(=O)(=O)N1CCOCC1	-5	1	4	x	x	x	-10	13
O=C(OCC(=O)N1CCCc2ccccc21)c1cccnc1Cl	x	-5	1	5	14	i	20	x
Cc1cc(C(=O)NNC(=O)CCCCC(=O)NNC(=O)c2cc(C)[nH]n2)n[nH]1	-3	-1	3	-4	18	i	-19	x
NC(=O)CC(NC(=O)Cc1cccc2ccccc12)c1ccc(NC2CC3CCC2C3)c([N+](=O)[O-])c1 (centres undefined)	25	3	-3	8	-10	i	29	-21
CC(=O)N1c2c(cc(Br)cc2S(=O)(=O)NCc2ccccc2)CC1C (centres undefined)	2	0	2	8	13	i	17	x
Cc1c(NC(=O)CN2C(=O)NC(C)(c3ccc4c(c3)OCCO4)C2=O)c(=O)n(-c2ccccc2)n1C (centres undefined)	3	-3	-2	-3	0	i	-7	1
Cc1nn(-c2ccccc2)c(N)c1-c1ccccc1	7	3	-3	3	0	i	-66	-7
COc1cc(C(O)c2nc(-c3cccc(NC(C)=O)c3)cs2)ccc1F (centres undefined)	x	3	-2	x	x	x	3	-22
COCCCNC(=O)/C=C/c1c(Cl)cccc1Cl	2	0	-1	-4	6	i	12	-4
O=CNCc1nc2ccccc2n1CCc1ccccc1	2	3	-1	-1	7	x	-7	-13
CC(=O)Nc1cncc(-c2ccccc2F)n1	x	5	7	x	x	x	-103	0
COc1ccccc1C(=O)NNC(=O)c1ccc(Br)cc1	-8	4	3	5	1	i	-17	-14

Next section, starting with the last three of the part before.
SMILES	CSC inhib	MT1-MMP act inh	MT1-MMP act inh RFP	eIF4H FP inh	PABP polyA inh	Rce1 inh	HIV Env fusion	Yeast UUG start	others
O=CNCc1nc2ccccc2n1CCc1ccccc1	2	3	-1	-1	7	x	-7	-13
CC(=O)Nc1cncc(-c2ccccc2F)n1	x	5	7	x	x	x	-103	0
COc1ccccc1C(=O)NNC(=O)c1ccc(Br)cc1	-8	4	3	5	1	i	-17	-14
Cc1nn(C)c(C(=O)Nc2cccc(Nc3ccccc3)c2)c1[N+](=O)[O-]	-4	10	-4	-4	-6	x	-39	-1
COc1cc(OC)cc(C(=O)N[C@H](C(=O)NNC(=O)c2ccc(Br)cc2)C(C)C)c1	-10	-1	3	x	x	x	13	24
CC1(c2nnc(-c3cccc(Cl)c3)o2)CC(c2c(Cl)cccc2Cl)=NO1 (centres undefined)	-6	-2	0	x	x	i	-11	-9
CCC1CCCCN1CCCNC(=O)C1CCCN(S(=O)(=O)N2CC(C)CC(C)C2)C1 (centres undefined)	20	-3	2	-8	-2	i	4	-2
CCOc1ccc(N2CC(O)(c3cccs3)[N+]3=C2CCCC3)cc1 (centres undefined)	29	-5	-5	3	-2	i	-24	-13
CC(=O)c1cccc(NC(=O)c2cnn(-c3ccccc3)c2C)c1	2	4	-1	-8	-12	i	8	-24
Cc1ccc(OCC(=O)NCc2ccc3c(c2)OCO3)c([N+](=O)[O-])n1	2	-2	-1	-1	-2	i	4	-7
O=c1[nH]cc(S(=O)(=O)NCc2ccccc2)c(=O)[nH]1	-8	-4	3	x	x	i	-5	-17
O=C(Nc1cc(C(F)(F)F)ccc1N1CCOCC1)c1cccc(S(=O)(=O)N2CCOCC2)c1	x	3	0	x	x	x	u	-6
CCN(CC)C(=O)CSc1nc(N)c2c3c(sc2n1)CC(C)CC3 (centres undefined)	-12	3	-6	-4	14	i	x	-15
O=C(NNc1ncccc1Cl)c1c(Cl)cccc1Cl	-7	-1	-3	25	22	i	-4	x
CCc1ccc(CN(C)C(=O)CCc2nnc(Cc3cccc(C)c3)o2)nc1	x	1	4	7	10	i	5	x
COc1ccccc1NC1=C(Cl)C(=O)N(C2CCCCC2)C1=O	6	12	3	2	4	i	-32	-3
COc1ccc(S(=O)(=O)Nc2cccnc2)cc1OC	-6	-3	2	-10	4	i	-9	0
CC(O)c1c(OCc2ccccc2)ncnc1OCc1ccccc1 (centres undefined)	x	-9	-13	2	4	i	x	-1
COc1ccc(S(=O)(=O)Nc2cccc3c2O[C@@H](CN(C)Cc2ccc(C(=O)O)cc2)[C@@H](C)CN([C@H](C)CO)C3=O)cc1	-11	-1	2	x	x	x	-20[16.7 µM]	4
CN(C)C(CNC(=O)C1CCN(S(=O)(=O)c2ccc(Cl)cc2)CC1)c1ccccc1 (centres undefined)	-7	-3	2	7	12	i	-1	-6
COc1ccccc1N(CC(=O)NCc1ccccc1)C(=O)CCC(=O)Nc1nccs1	-11	-3	-1	-8	2	i	-7	-8
COc1cc(NC(=O)c2cccc([N+](=O)[O-])c2)ccc1NC(=O)c1ccco1	-4	4	4	-5	-7	i	-116	x
CCNc1nc(-c2cc(C)n(Cc3ccco3)c2C)cs1	7	2	14	u	4	i	2	x
CCCN(CCC)CCNC(=O)C1(O)c2ccccc2NC(=O)N1c1cccc(OC)c1 (centres undefined)	3	-8	-4	-3	-6	i	-24	-7
Cc1cc(OCC(=O)N2CCN(c3ncccn3)CC2)ccc1Cl	-6	-3	-1	2	8	i	-45	22
O=C(Nc1ccc(N2CCN(C(=O)c3ccc(Cl)cc3)CC2)cc1)c1ccc([N+](=O)[O-])o1	x	-14	-35	-1	-5	i	i	x
Cc1ccc(C2/C(=C(/O)c3ccc(OC(C)C)cc3)C(=O)C(=O)N2CCN2CCOCC2)cc1 (centres undefined)	-6	4	3	-5	7	i	x	-15
O=C(Nc1nnc(-c2ccc3c(c2)CCCC3)o1)c1ccccc1	92*	2	-4	8	-6	i	u	-31
COc1ccc(-c2[nH]c3ccccc3c2SCCNC(=O)c2cc3ccccc3oc2=O)cc1	-1	5	0	-3	7	i	-3	-11
CCc1nnc(NC(=O)CCC(=O)NCCc2ccccc2)s1	-9	6	8	-7	-17	i	-1	0
COc1cccc2sc(N(CCCN(C)C)C(=O)c3sc4ccccc4c3Cl)nc12	-6	2	4	-3	4	i	x	10
COc1ccc(NC(=O)COC(=O)Cc2coc3cc(OC)ccc23)c(OC)c1	3	6	2	x	x	x	11	6
CC1(C)CC2CC(C)(CN2C(=O)COC(=O)c2cccc(O)c2)C1 (centres undefined)	1	-5	1	x	x	x	x	-16
Cc1ccc(SCc2nc(-c3ccccn3)no2)cc1	3	0	-1	1	-2	i	x	-26
COc1ccc(S(=O)(=O)NCc2csc(C)n2)cc1OC	-7	-2	3	5	3	i	3	-4
CCCc1cc(N2CCOCC2)n2ncc(-c3ccccc3)c2n1	-12	0	0	-5	-2	i	24	-12
COc1cc(CCC(=O)OCC(=O)Nc2ccc(C)cc2Cl)cc(OC)c1OC	-16	0	0	-3	2	i	-1	-15
Cc1sc(NC(=O)Nc2ccccc2)c(C(N)=O)c1C	0	-4	-2	5	7	i	-13	-2
O=C(CSc1nnc(-c2cccc(S(=O)(=O)N3CCCC3)c2)n1-c1ccccc1)Nc1cccc(C(=O)O)c1	-18	4	3	0	21	i	-9	-1
O=C(NC1CCCCC1)C(c1ccncc1)N(C(=O)c1csnn1)c1ccc(F)cc1 (centres undefined)	-5	0	4	2	-2	i	0	-12
CC(C)/C=C1\CC/C(=C\c2ccc(N(C)C)cc2)C1=O	36	-38	-7	u	-7	i	x	x
COc1cc(C(=O)N2CCN(c3cc(Cl)ccc3Cl)CC2)cc(OC)c1OC	61	20	-2	-1	-16	i	-203	-21
O=C(CSc1nnc(-c2ccncc2)n1-c1ccccc1)NC1CC1	3	-2	-2	-16	-1	i	x	-21
CCN(CC)S(=O)(=O)c1ccc(Br)c(OC)c1	-1	-3	-7	-6	3	i	7	-6
CCS(=O)(=O)Nc1cccc(C2=NN(S(C)(=O)=O)C(c3ccccc3)C2)c1 (centres undefined)	-6	-11	3	u	93	i	10	x	PABP polyA inh retest=30
CCOC(=O)C1CCN(C(=O)COC(=O)Cc2ccc(Cl)cc2)CC1	2	3	6	0	-15	i	-5	3
COc1ccc(CCNC(=O)c2ccc3nc(-c4ccco4)c(-c4ccco4)nc3c2)cc1OC	0	2	6	106*	67*	x	x	-23	eIF4H FP inh retest=106*;PABP polyA inh retest=99*

7 structures from above, arranged by SMILES length, smallest number first:
SMILES	CSC inhib	MT1-MMP act inh	MT1-MMP act inh RFP	eIF4H FP inh	PABP polyA inh	Rce1 inh	HIV Env fusion	Yeast UUG start	others
CCN(CC)S(=O)(=O)c1ccc(Br)c(OC)c1	-1	-3	-7	-6	3	i	7	-6
CC(C)/C=C1\CC/C(=C\c2ccc(N(C)C)cc2)C1=O	36	-38	-7	u	-7	i	x	x
COc1cc(C(=O)N2CCN(c3cc(Cl)ccc3Cl)CC2)cc(OC)c1OC	61	20	-2	-1	-16	i	-203	-21
O=C(NC1CCCCC1)C(c1ccncc1)N(C(=O)c1csnn1)c1ccc(F)cc1 (centres undefined)	-5	0	4	2	-2	i	0	-12
CCS(=O)(=O)Nc1cccc(C2=NN(S(C)(=O)=O)C(c3ccccc3)C2)c1 (centres undefined)	-6	-11	3	u	93	i	10	x	PABP polyA inh retest=30
COc1ccc(CCNC(=O)c2ccc3nc(-c4ccco4)c(-c4ccco4)nc3c2)cc1OC	0	2	6	106*	67*	x	x	-23	eIF4H FP inh retest=106*;PABP polyA inh retest=99*
O=C(CSc1nnc(-c2cccc(S(=O)(=O)N3CCCC3)c2)n1-c1ccccc1)Nc1cccc(C(=O)O)c1	-18	4	3	0	21	i	-9	-1
